SARS PLP yeast: qHTS of Yeast-based Assay for SARS-CoV PLP; S. cerevisiae expressing SARS-CoV PLpro, growth rescue; control for the full effect not named in the record; Potency, µM (doses to about 32.9 µM), for the others: top-dose activity, positive = growth rescue; actives 0.19% (n = 330,000); AID 485353, 2010; further: 0% is about no effect; nearly all actives have a fitted effect of over 55% in size; growth read by luminescence after 48 h
Cruzain noTriton: qHTS Assay for Promiscuous and Specific Inhibitors of Cruzain (without detergent); actives 2.3% (n = 200,000); AID 1476, 2009; purified cruzain, Z-FR-AMC fluorescence, no detergent; Cruzipain (Trypanosoma cruzi), P25779; Potency, µM, for inactives: max response, negative = inhibition, most hits filed as inhibitors; active means well fitted curve in the direction sought with a large enough effect; inconclusive means small, poorly fitted or top-dose-only effect, or another doubt; inactive means no such curve, though single readings can be large; an effect the other way counts as inactive or inconclusive;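 further: plate controls were enzyme without inhibitor for no effect and buffer without enzyme for full effect; nearly all actives have a fitted effect of over 40% in size; top concentration of the series not given in the record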
Target sequence (P25779 123-467 limits assumed): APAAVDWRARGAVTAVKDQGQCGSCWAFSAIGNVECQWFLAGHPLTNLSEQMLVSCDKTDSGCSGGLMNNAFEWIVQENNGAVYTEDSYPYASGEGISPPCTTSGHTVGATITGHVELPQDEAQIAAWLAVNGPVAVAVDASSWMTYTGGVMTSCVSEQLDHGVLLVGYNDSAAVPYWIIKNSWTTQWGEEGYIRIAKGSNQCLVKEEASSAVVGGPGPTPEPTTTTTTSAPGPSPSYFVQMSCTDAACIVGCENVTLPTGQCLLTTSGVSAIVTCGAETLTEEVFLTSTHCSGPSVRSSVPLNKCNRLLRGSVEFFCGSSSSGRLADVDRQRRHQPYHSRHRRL
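Purified cruzain at 1.5 nM, pre-incubated 15 min with compound at room temperature in 100 mM sodium acetate pH 5.5, 5 mM DTT, 0.00005% Triton X-100. Reaction started with 2 uM Z-FR-AMC; AMC fluorescence increase over 60 s gives rate.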
RE007 growth inh: qHTS Assay for Inhibitors of the HIV-1 protein Vpr | S. pombe RE007 Vpr strain, BacTiter-Glo ATP luminescence, 24 h; control for the full effect not named in the record | Potency, µM (titrated, usually from 92.2 µM), inactives show at the highest dose activity change, negative = less growth | actives 0.21% (n = 360,000); active = well fitted falling curve with a large enough effect; inconclusive = small, poorly fitted or top-dose-only effect; inactive = no such curve, though single readings can be large or run the other way;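 further: on the % scale 0 is the no-effect control and ±100 the full control effect; nearly all actives have a fitted effect of over 50% in size; the assay follows cell death caused by Vpr and the record does not say whether a fall means rescue or toxicity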
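Fission yeast RE007 carrying one integrated HIV-1 vpr copy, seeded at OD 0.01 in PMG+AL medium with 23 nL pinned compound. Grown 24 h at 30 degrees; viability read by BacTiter-Glo luminescence after 5 min.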
Cruzain inh Det: qHTS Assay for Promiscuous and Specific Inhibitors of Cruzain (with detergent). purified cruzain, Z-FR-AMC fluorescence, 0.01% Triton. AID 1478, 2009. Potency, µM, for the others: max response, negative = inhibition, actives largely listed as inhibitors. actives 0.43% (n = 200,000); active means well fitted curve in the direction sought with a large enough effect; inconclusive means small, poorly fitted or top-dose-only effect, or another doubt; inactive means no such curve, though single readings can be large; an effect the other way counts as inactive or inconclusive;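 further: plate controls were neutral wells for no effect and buffer without enzyme for full effect; nearly all actives have a fitted effect of over 40% in size; top concentration of the series not given in the record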
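Detergent-containing run (0.01% Triton X-100) in acetate buffer pH 5.5 with 5 mM DTT: enzyme at 1.5 nM final, 15 min compound preincubation at room temperature, then 2 uM Z-FR-AMC substrate. Activity taken as 60 s fluorescence increase at 360/450 nm.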
NS1 inh: qHTS Assay for Inhibitors of Influenza NS1 Protein Function; actives 0.4% (n = 270,000); S. cerevisiae slowed by influenza A NS1, growth recovery by OD600; Potency, µM (top dose mostly 46.1 µM), for the others: top-dose activity, positive = more growth; further: actives are rising curves; nearly all actives have a fitted effect of over 50% in size
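In this qHTS, NS1 from influenza A is expressed in budding yeast, where it slows growth. Cells are switched from glucose to 2% galactose medium (pH 6.0, -URA), treated with compound, and growth recovery is read at OD600.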
Marburg entry inh: qHTS for inhibitors of binding or entry into cells for Marburg Virus; Marburg virus pseudotyped entry inhibition, cell reporter; control for the full effect not named in the record; about a third of the inactives were read at about 46 µM; Potency, µM (series often up to 37.8 µM), for the others: at the top dose activity change, negative = inhibition, actives largely listed as inhibitors; actives 1.8% (n = 300,000); AID 540276, 2011; active = well fitted inhibition curve with a large enough effect; inconclusive = small, poorly fitted or top-dose-only effect, or effect the other way; inactive = flat fitted curve, though single readings scatter; tested in HEK293 cells; about a fifth of its hits are not listed in these tables; further: on the % scale 0 is the no-effect control and ±100 the full control effect; luciferase read-out
Lassa entry inh: qHTS for Inhibitors of binding or entry into cells for Lassa Virus. Lassa virus pseudotype entry inhibition, cell reporter; control for the full effect not named in the record. Potency, µM (series often up to 37.9 µM), for inactives: top-dose activity change, negative = inhibition, hits mostly inhibitors. actives 1.2% (n = 300,000). AID 540256, 2011; active means well fitted inhibition curve with a large enough effect; inconclusive means small, poorly fitted or top-dose-only effect, or effect the other way; inactive means flat fitted curve, though single readings scatter; tested in HEK293 cells; further: on the % scale 0 is the no-effect control and ±100 the full control effect; nearly all actives have a fitted effect of over 50% in size; luciferase read-out
StopGo reporter: High Throughput Screening for Foot and Mouth Disease Virus Antivirals; human cells with a luciferase reporter of 2A StopGo recoding; control for the full effect not named in the record; Potency, µM (doses to about 57.9 µM), for inactives: at the top dose signal change, negative = less light; actives 1.2% (n = 410,000); active = well fitted falling curve with a large enough effect; inconclusive = small, poorly fitted or top-dose-only effect; inactive = no such curve, though single readings can be large or run the other way; tested in HEK293T cells; further: on the % scale 0 is the no-effect control and ±100 the full control effect; nearly all actives have a fitted effect of over 45% in size; luciferase light after 4 h
* = called active by the depositor; ? = inconclusive; nt = no result given; & = joins results of further samples; [ ] = another dose, or the depositor's remark. Unless noted, the call rests on the fitted dose curve; in most records, active means well fitted rising curve with a large enough effect; inconclusive means small, poorly fitted or top-dose-only effect; inactive means no such curve, though single readings can be large or run the other way. Potency means the concentration at half of the fitted maximal effect.

cpd	Molecule	SARS PLP yeast	Cruzain noTriton	RE007 growth inh	Cruzain inh Det	NS1 inh	Marburg entry inh	Lassa entry inh	StopGo reporter
1	Cc1cccc(S(=O)(=O)N2CCn3cccc3C2C)c1 (centres undefined)	8%	nt	1%	nt	nt	35%	0%	-5%
2	O=C(CCNS(=O)(=O)c1ccc(Br)cc1)Nc1cccc(F)c1	1%	nt	-3%	nt	-2%	6%[46.1 µM]	nt	38%[activator]
3	N/C(=N\OC(=O)c1ccc(F)cc1)c1nonc1N	-7%	-1%	?	0.7%	9%	?	0%	47%[activator]
4	O=C(NNC(=O)c1csc(N2CCOCC2)n1)c1cccnc1	-7%	nt	-21%	nt	nt	-4%	1%[46.1 µM]	7%
5	CN(C)CCCN=C(NO)c1ccc(Cl)cc1Cl	5%	nt	-16%	nt	1%	9%[46.1 µM]	21%[46.1 µM]	6%
6	COc1ccc(/C=N\NC(=O)C2C(=O)NCC2c2ccccc2)cc1O (centres undefined)	6%	-6%	2%	1.5%	0%	16%	-30%	-7%
7	Cc1cc(C)n(-c2cccc(Cl)c2C#N)n1	-4%	nt	31%	nt	-6%	19%[46.1 µM]	1%[46.1 µM]	26%
8	c1ccc(OCc2nnnn2-c2ccccc2)cc1	10%	-3%	3%	-0.8%	-9%	29%	3%	-7%
9	Cc1ccc(C(=O)Nc2cccc(C(F)(F)F)c2)cc1Nc1cncnc1	-16%	nt	18%&-6%	nt	?	nt	nt	?
10	CSc1ccccc1NC(=O)c1cc(C)on1	2%[6.58 µM]	-7%	-11%	1.8%	-8%	20%	14%[14.3 µM]	56%[activator]
11	O=C(CCCN1C(=O)c2ccccc2C1=O)OC1CSCC1NC(=O)c1ccccc1 (centres undefined)	6%	1%	0%	-0.2%	-2%	3%	-3%	-28%
12	CCOc1cc(C2C(C(=O)c3ccco3)=C(O)C(=O)N2CC2CCCO2)ccc1O (centres undefined)	-1%	nt	3%	nt	18%	0%[46.1 µM]	0%[46.1 µM]	2%
13	CCOC(=O)/C(=C\c1ccccc1)C(=O)CCN1CCOCC1	nt	nt	-13%	nt	nt	12%	-4%[46.1 µM]	18µM*
14	Cc1cc2n(n1)C(c1ccccc1)CC(c1ccc(Br)cc1)=N2 (centres undefined)	-15%	-5%	-10%	-5.8%	5%	-34%	-1%	16%
15	CCN1C(=O)/C(=C/c2ccc(OCc3ccc(C(=O)O)cc3)c(Cl)c2)NC1=S	-1%	nt	3%	nt	12%	-9%[46.1 µM]	6%	-15%
16	O=C(N/N=C/c1ccc(OC(=O)c2ccccc2Cl)cc1)c1ccccn1	0%	nt	-15%	nt	-4%	?	?	31%[activator]
17	COc1ccc(CN(C(=O)c2snc(C(N)=O)c2N)C(C(=O)NC2CCCC2)c2ccc(OC)cc2)cc1 (centres undefined)	-1%	nt	24%	nt	8%	-19%[46.1 µM]	?	-3%
18	CCN(CC(=O)Nc1ccccc1C(=O)Nc1ccccc1)Cc1nc2ccccc2c(=O)[nH]1	0%	nt	16%	nt	nt	27%[46.1 µM]	-14%	-1%
19	CCOC(=O)C1=C(CC)Nc2ccccc2N=C1NC(=O)c1oc2ccccc2c1C	-4%	nt	17%	nt	nt	?	?	-26%
20	C(#Cc1ccccc1)CN1CCOCC1	1%	nt	10%	nt	nt	18%[46.1 µM]	nt	14%
21	O=C(CSc1nncs1)Nc1ccc2[nH]c(=O)[nH]c2c1	nt	nt	-5%	nt	nt	8%[46.1 µM]	1%	9%
22	COc1ccc(-c2c3c(=O)n(C)c(=O)n(C)c3cn2-c2ccccc2)cc1	-4%	13%	-2%	-2.5%	0%	-24%	-11%	-6%
23	CCOC(=O)c1cc2cc(F)ccc2nc1C	1%	-1%	-4%	8.6%	-2%	-29%	12%	7%
24	CCCc1cc(=O)oc2cc(C)c3c(C(C)(C)C)coc3c12	nt	1%	nt	-1.5%	nt	?	4%[46.1 µM]	?
25	Cc1ccccc1C(=O)N1CCC(C(=O)Nc2cccc(F)c2)CC1	-1%	0%	11%	-6.5%	-1%	1%	5%	-10%
26	CCOC(=O)c1cnc(SC2CC(=O)N(c3ccc(C)cc3)C2=O)nc1N (centres undefined)	nt	13%	1%	6.5%	2%	3%	3%	-17%
27	CCCCc1cc(=O)oc2cc(C)cc(OC(C)C(=O)O)c12 (centres undefined)	5%	-14%	13%	-4.5%	2%	4%	21%	-6%
28	O=C1NC2(CCc3ccccc32)C(=O)N1CCOc1ccc(Cl)cc1 (centres undefined)	-5%	2%	17%	-3.4%	2%	-2%	-1%	-2%
29	CCCc1ccc(OC(=O)c2sc3ncn(Cc4cccc(F)c4)c(=O)c3c2C)cc1	nt	-4%	nt	1.4%	nt	nt	26%[46.1 µM]	-7%
30	Cc1nc2c(-c3ccccc3)cnn2c(N)c1-c1ccccc1	-11%	nt	-5%	nt	-48%	?	?	?

Reformatted with values under each structure: entries from further up.
Second line of a record – SARS PLP yeast	Cruzain noTriton	RE007 growth inh	Cruzain inh Det	NS1 inh	Marburg entry inh	Lassa entry inh	StopGo reporter
#1 Cc1cccc(S(=O)(=O)N2CCn3cccc3C2C)c1 (centres undefined)
 : 8%	nt	1%	nt	nt	35%	0%	-5%
#2 O=C(CCNS(=O)(=O)c1ccc(Br)cc1)Nc1cccc(F)c1
 : 1%	nt	-3%	nt	-2%	6%[46.1 µM]	nt	38%[activator]
#3 N/C(=N\OC(=O)c1ccc(F)cc1)c1nonc1N
 : -7%	-1%	?	0.7%	9%	?	0%	47%[activator]
#4 O=C(NNC(=O)c1csc(N2CCOCC2)n1)c1cccnc1
 : -7%	nt	-21%	nt	nt	-4%	1%[46.1 µM]	7%
#5 CN(C)CCCN=C(NO)c1ccc(Cl)cc1Cl
 : 5%	nt	-16%	nt	1%	9%[46.1 µM]	21%[46.1 µM]	6%
#6 COc1ccc(/C=N\NC(=O)C2C(=O)NCC2c2ccccc2)cc1O (centres undefined)
 : 6%	-6%	2%	1.5%	0%	16%	-30%	-7%
#7 Cc1cc(C)n(-c2cccc(Cl)c2C#N)n1
 : -4%	nt	31%	nt	-6%	19%[46.1 µM]	1%[46.1 µM]	26%
#8 c1ccc(OCc2nnnn2-c2ccccc2)cc1
 : 10%	-3%	3%	-0.8%	-9%	29%	3%	-7%
#9 Cc1ccc(C(=O)Nc2cccc(C(F)(F)F)c2)cc1Nc1cncnc1
 : -16%	nt	18%&-6%	nt	?	nt	nt	?

Next part
cpd	Molecule	SARS PLP yeast	Cruzain noTriton	RE007 growth inh	Cruzain inh Det	NS1 inh	Marburg entry inh	Lassa entry inh	StopGo reporter
31	CCC(C)[C@H](N)c1cn([C@@H](CCCCN)C(=O)N2CCNCC2)nn1 (some centres undefined)	0%	nt	-21%	nt	0%	nt	nt	-15%
32	COc1cccc(CN2CCCN(Cc3ccc(F)cc3)S2(=O)=O)c1	nt	-5%	nt	-6.5%	nt	nt	-1%[46.1 µM]	9%
33	COc1cccc(/C=C2\SC(=S)N(NS(=O)(=O)c3ccccc3)C2=O)c1OC	-6%	nt	-8%	nt	-48%	nt	nt	17%
34	Cc1cc(=O)oc2cc(OC(C)C(=O)NCC3CCC(C(=O)O)CC3)ccc12 (centres undefined)	2%	nt	-22%	nt	6%	nt	nt	-19%
35	COc1ccc(CNC(=O)CN(C)S(=O)(=O)c2ccc(Cl)cc2)cc1	0%	nt	-7%	nt	0%	nt	nt	2%
36	Cc1cccc(Nc2nnc(SCC(=O)Nc3cccnc3Cl)s2)c1	8%	16µM*	-2%	25µM*	19%	0%	20%	15%
37	Cc1onc(-c2ccccc2Cl)c1C(=O)N(Cc1ccccc1)C(C)C	-2%	nt	-20%	nt	-10%	?	-14%[46.1 µM]	-7%
38	O=S(=O)(CCSc1nc2ccccc2o1)Cc1ccccc1	2%	-17%	-17%	-8.2%	13%	1%	19%	7%
39	CC(=O)Nc1ccc(SCC(=O)OCC(=O)NC(=O)NC2CCCC2)cc1	1%	nt	-21%	nt	nt	13%[46.1 µM]	?	4%
40	COc1ccc(/C=C\C(=O)NCc2ccc3[nH]c(C)cc3c2)cc1OC	19%	10%	-4%	-5.1%	?	25%	-21%	18%
41	CCOCCCNC(=O)c1ccc(CS(=O)(=O)Cc2cccc(C)c2)o1	4%	-3%	4%	-5.1%	-12%	-5%	4%	nt
42	CSc1ncccc1C(=O)Nc1ccc(C)cn1	3%	nt	5%	nt	5%	?	4%[46.1 µM]	-9%
43	O=S(=O)(Cc1ncc(C(F)(F)F)cc1Cl)c1ccccc1	1%	nt	-3%	nt	9%	-24%[46.1 µM]	?	14%
44	Cc1ccc(NC(=O)COC(=O)CNC(=O)C2CCCCC2)c(Br)c1	-3%	nt	-4%	nt	-9%	2%[46.1 µM]	nt	24%
45	CCOc1ccc(S(=O)(=O)Nc2ccc(C(=O)NN)cc2)cc1	-1%	nt	-6%	nt	10%	nt	nt	-10%
46	CC(=O)c1cccc(NC(=O)COC(=O)c2n[nH]c3ccccc23)c1	3%	nt	-1%	nt	nt	9%	9%	11%
47	CCOC(=O)C1=C(C)NC(=S)NC1c1ccc(OCC(=O)N2CCCCCC2)cc1 (centres undefined)	2%	nt	-2%	nt	6%	-5%[46.1 µM]	?	-16%
48	CCCCn1c(=O)cc(N2CCOCC2)[nH]c1=O	1%	-6%	9%	3.5%	1%	nt	nt	-13%
49	CCOCCCNC(=O)C(NC(=O)CNC(=O)c1ccccc1)c1ccc(C)cc1 (centres undefined)	3%	-14%	16%	-12%	-8%	-8%	4%	13%

Compound activity deposited in PubChem by National Center for Advancing Translational Sciences (NCATS).
